Compound activity (PubChem)
p53 nuclei – p53 stabilisation in HPV-positive human cells, imaging, p53-positive nuclei imaging, 24 h, 48 h (AID 1508601); Cellular tumor antigen p53 (Homo sapiens); p53-positive nuclei imaging, 48 h; active compounds read high; some inactives read as strong as hits; p53-positive nuclei, normalised, % at 11 µM unless noted; 5,700 compounds, 1% hits;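 active means mean of two plates above 50% at 24 h or at 48 h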;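 further: HPV-positive HeLa cells with a fluorescent p53 stability reporter; 0% = vehicle and 100% = proteasome inhibitor control; doses worked out from stocks diluted about 900-fold with the highest of each compound shown; many of its hits are not listed in these tables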
p53 nuclei cells 24 h – second read-out of p53 nuclei, no call of its own (marks repeat the call); nuclei count, normalised, %; measured here: cell number at 24 h;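 100% = vehicle wells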
p53 nuclei p53 24 h – second read-out of p53 nuclei, no call of its own (marks repeat the call); p53-positive nuclei, normalised, %; measured here: p53 positive nuclei at 24 h;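 0% = vehicle and 100% = positive control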
p53 nuclei cells 48 h – also measured in p53 nuclei; calls as there; nuclei count, normalised, %; measured here: cell number at 48 h;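 100% = vehicle wells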
An asterisk follows results filed as active; [ ] = remark or other dose. These rows are one share of the data; rates above refer to the full screens.

SMILES	p53 nuclei	p53 nuclei cells 24 h	p53 nuclei p53 24 h	p53 nuclei cells 48 h
COC1CC2CCC(C)[C@](O)(O2)C(=O)C(=O)N2CCCC[C@H]2C(=O)OC(C(C)CC2CCC(n3cnnn3)C(OC)C2)CC(=O)C(C)C=C(C)C(O)C(OC)C(=O)C(C)CC(C)C=CC=CC=C1C (stereo partly specified)	-0.1[3.7 µM]	97	-0.3	91
COc1ccc2ccc(=O)oc2c1CC=C(C)C	-0.3[3.7 µM]	89	-0.2	94
C=CC(=O)Nc1cccc(Nc2nc(NC3CCC(N(C)C)CC3)nc3c2ncn3C(C)C)c1 (stereo unspecified)	1.7	33	1.1	22
CCCCCCCCCCCCc1ccc(S(=O)(=O)Nc2nncs2)cc1	-0.1[3.7 µM]	106	-0.1	108
O=c1c(-c2ccc(O)cc2)coc2cc(O)cc(O)c12	0.0	92	-0.2	88
CC(C)(C)[N+]([O-])=Cc1ccc(S(=O)(=O)O)cc1S(=O)(=O)O	-0.2[3.7 µM]	110	-0.4	111
Cc1cc(=O)[nH]c(O)c1C#N	0.0	111	-0.2	101
CC(C)(C)OC(=O)N1CCC(OC2CCNCC2)CC1	0.1	117	0.0	112
Cc1csc2c(NC(C)CN3CCN(S(=O)(=O)c4ccc(Cl)c(Cl)c4)CC3)ncnc12 (stereo unspecified)	-0.2	117	0.0	117
O=C(c1cncc(Br)c1)N1CCC(N2CCCC2)CC1	-0.7	111	-0.1	108
O=C(c1ccc(OCCCc2cnc[nH]2)cc1)C1CC1	-0.2[3.7 µM]	118	-0.5	111
NC(C(=O)O)[C@H]1CC(Cl)=NO1 (stereo partly specified)	1.5	62	-0.1	53
C=C1C(=O)[C@@]23C(O)[C@H]1CCC2[C@]12CO[C@]3(O)C(O)[C@@H]1C(C)(C)CCC2O (stereo partly specified)	0.0[3.7 µM]	101	-0.2	101
CC(=Cc1ccccc1)C=C1SC(=S)N(CC(=O)O)C1=O	0.1[3.7 µM]	108	-0.2	107
COC(=O)c1cnn(-c2ccc(F)cc2F)c1C=NNC(=S)NC(C)(C)C	-0.2	110	0.0	105
O=c1[nH]oc2cc(Cl)ccc12	0.0	101	0.0	106
CC1CNc2c(cccc2S(=O)(=O)N[C@@H](CCCN=C(N)N)C(=O)N2CCC(C)CC2C(=O)O)C1 (stereo partly specified)	-0.3[3.7 µM]	106	-0.5	98
Cc1nc(-c2cn3c(n2)-c2ccc(-c4cnn(C(C)(C)C(N)=O)c4)cc2OCC3)n(C(C)C)n1	-0.2	80	-0.1	83
C=CC(=O)Nc1cccc(Sc2nc(Nc3ccc(N4CCN(C)CC4)cc3)ncc2Cl)c1	-0.6[3.7 µM]	113	-0.3	107
NS(=O)(=O)OCC1CC(n2ccc3c(NC4CCc5ccccc54)ncnc32)CC1O (stereo unspecified)	11	63	0.1	49
O=NN(CCCl)C(=O)NC1CCCCC1	0.0[3.7 µM]	106	-0.2	110
CC1(C)OC2C[C@H]3[C@@H]4CCC5=CC(=O)CC[C@]5(C)[C@]4(F)C(O)C[C@]3(C)[C@@]2(C(=O)CCl)O1 (stereo partly specified)	-0.2[3.7 µM]	81	-0.3	80
NCc1cc(-c2cccnc2)no1	0.0	106	-0.2	110
Cc1ccc(-c2nn(C(C)(C)C)c3ncnc(N)c23)cc1	0.1	69	0.0	50
COC(=O)C1C(OC)C(OC(=O)c2cc(OC)c(OC)c(OC)c2)C[C@@H]2CN3CCc4c([nH]c5cc(OC)ccc45)[C@H]3C[C@H]12 (stereo partly specified)	-0.1[3.7 µM]	89	-0.2	100

Just p53 nuclei p53 24 h, p53 nuclei cells 48 h and p53 nuclei, for two of the compounds above:
structure | p53 nuclei p53 24 h | p53 nuclei cells 48 h | p53 nuclei
C=CC(=O)Nc1cccc(Nc2nc(NC3CCC(N(C)C)CC3)nc3c2ncn3C(C)C)c1 (stereo unspecified) | 1.1 | 22 | 1.7
CCCCCCCCCCCCc1ccc(S(=O)(=O)Nc2nncs2)cc1 | -0.1 | 108 | -0.1[3.7 µM]

New compounds follow.
SMILES	p53 nuclei	p53 nuclei cells 24 h	p53 nuclei p53 24 h	p53 nuclei cells 48 h
O=Nc1c(O)[nH]c2c(Cl)c(Cl)ccc12	84*	74*	8.7*	34*
CC(NC(=O)c1cc(Cl)ccc1Oc1ccc(F)cc1)c1ccc(C(=O)O)cc1 (stereo unspecified)	0.0	107	-0.1	108
CCc1c(O)cc(O)c(C(=O)c2ccc(OCCN3CCOCC3)c(OC)c2)c1CC(=O)N(CCOC)CCOC	-0.2[3.7 µM]	53	-0.3	42
CCCOc1ccc(Br)cc1-c1cc(-c2ccc(Cl)cc2)[nH]c1-c1ccncc1	0.0	65	0.0	69
C=CS(=O)(=O)NC1CCN(C(=O)CNc2cc(I)c(Cl)cc2OC)CC1	-0.1[3.7 µM]	107	-0.4	103
O=C1C(c2c(O)[nH]c3ccccc23)=Nc2ccccc21	0.4[3.7 µM]	98	-0.2	95
COC1C=CC=C(C)C(=O)NC2=CC(=O)C(NCCN(C)C)=C(CC(C)CC(OC)C(O)C(C)C=C(C)C1OC(N)=O)C2=O (stereo unspecified)	-0.2[3.7 µM]	37	0.3	30
COc1ccc(OCC2c3cc(OC)c(OC)cc3CCN2C(=O)c2ccc(Cl)cc2)cc1 (stereo unspecified)	-0.2	102	-0.1	100
COc1cc(NC(C)CCCN)c2ncccc2c1 (stereo unspecified)	-0.1[3.7 µM]	107	-0.3	105
Cc1ccc(C(=O)c2cc(O)c(O)c([N+](=O)[O-])c2)cc1	0.1	109	0.2	107
CCN(CC)CCCC(C)Nc1c2ccc(Cl)cc2nc2ccc(OC)cc12 (stereo unspecified)	0.0[3.7 µM]	90	-0.2	79
C=CCN1CCCC1CNC(=O)c1cc2[nH]nnc2cc1OC (stereo unspecified)	0.2[3.7 µM]	94	-0.1	96
CC(=O)N=c1sc(S(N)(=O)=O)nn1C	0.2	96	0.0	93
CCC1OC(=O)C(C)C(OC2C[C@@](C)(OC)C(O)C(C)O2)C(C)C(OC2OC(C)CC(N(C)C)C2O)[C@@](C)(O)CC(C)C(=O)C(C)C(O)[C@]1(C)O (stereo partly specified)	12[3.7 µM]	103	-0.2	103
Oc1ccc(Nc2nc(-c3ccc(Cl)cc3)cs2)cc1	0.1	109	0.0	115
CSc1nc2cc(Oc3cccc(Cl)c3Cl)c(Cl)cc2[nH]1	0.2	110	-0.2	110
COc1cc(N2CCN(C)CC2)ccc1Nc1ncc2c(n1)N(C)c1ccccc1C(=O)N2C	0.9	63	2.1	60
Clc1ccc(C(c2ccccc2Cl)C(Cl)Cl)cc1 (stereo unspecified)	0.0	96	0.1	98
Cc1cccc(C#Cc2ccccc2)n1	-0.3[3.7 µM]	113	-0.2	102
CC1OC(OCC2OC(Oc3c(-c4ccc(O)c(O)c4)oc4cc(O)cc(O)c4c3=O)C(O)C(O)C2O)C(O)C(O)C1O (stereo unspecified)	-0.3[3.7 µM]	114	-0.6	107
COc1ccc(C2(CNC(=O)[C@](C)(Cc3c[nH]c4ccccc34)NC(=O)Nc3ccc([N+](=O)[O-])cc3)CCCCC2)nc1	-0.1	112	0.1	115
COc1cc2ncnc(Nc3ccc(F)c(Cl)c3)c2cc1OCCCN1CCOCC1	-0.2	85	0.0	92
COC1C=CO[C@@]2(C)Oc3c(C)c(O)c4c(O)c(c5c(c4c3C2=O)NC2(CCN(CC(C)C)CC2)N=5)=NC(=O)C(C)=CC=CC(C)C(O)C(C)C(O)C(C)C(OC(C)=O)C1C (stereo partly specified)	0.0[3.7 µM]	106	-0.1	95
O=C1Nc2ccc(Cl)cc2C1=Cc1cc(Cl)c(O)c(Cl)c1	0.0	102	-0.1	99
CCCCc1oc2ccc(NS(C)(=O)=O)cc2c1C(=O)c1ccc(OCCCN(CCCC)CCCC)cc1	1.9	41	3.1	24

(list continues)
SMILES	p53 nuclei	p53 nuclei cells 24 h	p53 nuclei p53 24 h	p53 nuclei cells 48 h
COC(=O)Nc1nc2ccc(Sc3ccccc3)cc2[nH]1	4.3[3.7 µM]	50	0.7	41
Cc1cc(Nc2cc(CN3CCOCC3)c3nc(C)c(Cc4ccc(Cl)cc4F)n3n2)n[nH]1	3.3	40	0.9	21
CCN1CCN(Cc2ccc(NC(=O)c3ccc(C)c(C=Cc4cnc5[nH]ccc5c4OC)c3)cc2C(F)(F)F)CC1	-0.1	76	-0.1	73
OC(CCCN1CCCCC1)(c1ccccc1)c1ccccc1	-0.1[3.7 µM]	113	-0.2	108
CC(=O)OC1C(=O)[C@]2(C)C(O)CC3OC[C@@]3(OC(C)=O)C2C(OC(=O)c2ccccc2)[C@]2(O)CC(OC(=O)C(O)C(NC(=O)c3ccccc3)c3ccccc3)C(C)=C1C2(C)C (stereo partly specified)	0.2	44	0.0	28
CN(CCC(Oc1ccc(-c2ccccc2)cc1)c1ccc(F)cc1)CC(=O)O (stereo unspecified)	-0.1	115	-0.1	110
CCCCCOC(=O)Nc1nc(=O)n(C2OC(C)C(O)C2O)cc1F (stereo unspecified)	-0.6[3.7 µM]	99	-0.3	102
COc1cc(C(C)=O)ccc1O	-0.2[3.7 µM]	116	-0.5	110
Cc1ccc(-n2[nH]c(C)c(N=Nc3cccc(-c4cccc(C(=O)O)c4)c3O)c2=O)cc1C	0.0	110	0.0	109
CC(C)(C)NC(=O)C1CC[C@H]2[C@@H]3CC[C@@H]4NC(=O)C=C[C@]4(C)[C@H]3CC[C@]12C (stereo partly specified)	-0.2	84	-0.1	90
NCCCCC(NC(=O)C(Cc1cc(Br)c(O)c(Br)c1)NC(=O)N1CCC(N2Cc3ccccc3NC2=O)CC1)C(=O)N1CCN(c2ccncc2)CC1 (stereo unspecified)	-0.1	83	-0.2	90
CON(C)C(=O)N1N=C(c2cc(F)ccc2F)S[C@@]1(CCCN)c1ccccc1	0.2	43	0.0	29
O=c1ccn(C2OC(COP(=O)(O)OP(=O)(O)OP(=O)(O)O)C(O)C2O)c(=O)[nH]1 (stereo unspecified)	-0.1	103	0.2	101
O=C(Nc1nc2cccc(-c3ccc(CN4CCS(=O)(=O)CC4)cc3)n2n1)C1CC1	0.9	72	0.2	59
CC(C=CC=C(C)C=CC1=C(C)CCCC1(C)C)=CC=CC=C(C)C=CC=C(C)C=CC1=C(C)CCCC1(C)C	0.2[3.7 µM]	102	0.0	107
CC(CCC(=O)O)C1CC[C@H]2[C@@H]3CC[C@@H]4CC(O)CC[C@]4(C)[C@H]3CC[C@]12C (stereo partly specified)	-0.1[3.7 µM]	82	-0.3	85
CSCCC(NC(=O)C(CC(C)C)NC(=O)CNC(=O)C(NC(=O)C(Cc1ccccc1)NC(=O)C(CO)NC(=O)C(CC(=O)O)NC(=O)[C@H](NC(=O)C(CCCCN)NC(=O)C(N)Cc1cnc[nH]1)C(C)O)C(C)C)C(N)=O (stereo partly specified)	-0.2	106	-0.1	105
CCn1c2ccccc2c2cc(Nc3ccnc(NCCCN4CCOCC4)n3)ccc21	0.1[3.7 µM]	110	-0.1	104
NC(CSCCB(O)O)C(=O)O (stereo unspecified)	0.0	106	0.2	105
Nc1nc2c(c(=O)[nH]1)CC(CCc1ccc(C(=O)NC(CCC(=O)O)C(=O)O)cc1)CN2 (stereo unspecified)	0.3	76	0.3	52
CCc1c(C(=O)NCCc2ccc(N3CCCCC3)cc2)[nH]c2ccc(Cl)cc12	0.2[3.7 µM]	102	-0.1	99
CC(=O)O[C@]1(C(C)=O)CC[C@@H]2[C@H]3CCC4=CC(=O)CCC4=C3C(c3ccc(N(C)C)cc3)C[C@@]21C (stereo partly specified)	-0.1	117	-0.1	111
NC(=O)Nc1cc(-c2cccc(F)c2)sc1C(=O)NC1CCCNC1 (stereo unspecified)	1.2	36	1.4	22
O=c1[nH]c(=O)n(C2CCCO2)cc1F (stereo unspecified)	-0.7[3.7 µM]	93	-0.2	93
Oc1ccc(-c2nc(-c3ccc(F)cc3)c(-c3ccncc3)[nH]2)cc1	-0.2	108	0.0	106

The list continues:
SMILES	p53 nuclei	p53 nuclei cells 24 h	p53 nuclei p53 24 h	p53 nuclei cells 48 h
O=C1C(=O)c2ccccc2C(O)=C1C1CCC(c2ccc(Cl)cc2)CC1 (stereo unspecified)	-0.1[3.7 µM]	116	0.4	109
C[C@H](OC[C@@]1(c2ccccc2)CC[C@]2(CCC(=O)N2)CN1)c1cc(C(F)(F)F)cc(C(F)(F)F)c1	0.2	91	0.6	94
O=C(NCCCNc1nc(Nc2cccc(NC(=O)N3CCCC3)c2)ncc1I)c1cccs1	0.1	46	0.1	29
CC(C)(C)C(=O)Nc1ccc2c(c1)C(=O)C(=O)c1ccccc1-2	0.5[3.7 µM]	52	-0.2	56
Cc1ncc([N+](=O)[O-])n1CC(C)O (stereo unspecified)	-0.2[3.7 µM]	106	-0.4	103
CC(CS)C(=O)N1CCCC1C(=O)O (stereo unspecified)	-0.3[3.7 µM]	105	-0.5	102

Of the compounds above, 5 have two or more sulfur atoms.
SMILES	p53 nuclei	p53 nuclei cells 24 h	p53 nuclei p53 24 h	p53 nuclei cells 48 h
CCCCCCCCCCCCc1ccc(S(=O)(=O)Nc2nncs2)cc1	-0.1[3.7 µM]	106	-0.1	108
CC(C)(C)[N+]([O-])=Cc1ccc(S(=O)(=O)O)cc1S(=O)(=O)O	-0.2[3.7 µM]	110	-0.4	111
Cc1csc2c(NC(C)CN3CCN(S(=O)(=O)c4ccc(Cl)c(Cl)c4)CC3)ncnc12 (stereo unspecified)	-0.2	117	0.0	117
CC(=Cc1ccccc1)C=C1SC(=S)N(CC(=O)O)C1=O	0.1[3.7 µM]	108	-0.2	107
CC(=O)N=c1sc(S(N)(=O)=O)nn1C	0.2	96	0.0	93
